Compound activity as filed in PubChem BioAssay.
Marburg entry: blocks Marburg virus binding or cell entry. Marburg virus pseudotype entry/binding inhibition, cell-based; control for the full effect not named in the record; many of its hits are not listed in these tables. 18,000 compounds, 6.5% hits. Potency, µM (highest dose often 49.2 µM), for the others: at the highest dose activity change, negative = inhibition, most hits filed as inhibitors; active means well fitted inhibition curve with a large enough effect; inconclusive means small, poorly fitted or top-dose-only effect; inactive means no such curve, though single readings can be large or run the other way; tested in HEK293 cells; also: luciferase read-out
LASV entry inh: Lassa virus entry inhibition; Lassa virus pseudotyped entry inhibition, cell-based qHTS; control for the full effect not named in the record; many of its hits are not listed in these tables; Potency, µM (doses to about 49.2 µM), for inactives: at the top dose activity change, negative = inhibition, actives largely listed as inhibitors; 18,000 compounds, 4.1% hits; AID 720533; active = well fitted inhibition curve with a large enough effect; inconclusive = small, poorly fitted or top-dose-only effect; inactive = no such curve, though single readings can be large or run the other way; tested in HEK293 cells; also: luciferase read-out
* = called active by the depositor; ? = inconclusive; / = not tested or not shown; & = joins results of further samples; ! = not active in a repeat; [ ] = another dose, or the depositor's remark. % is scaled to controls: 0 for no effect and ±100 for the full control effect; potency is read from the fitted curve at half-maximal effect. The list is partial; rates above refer to the full screens.

SMILES	Marburg entry	LASV entry inh
COc1ccccc1CNc1ccnc(-c2ccoc2)n1	-12%	-14%
CC(C)CSc1nnc(CNC(=O)c2ccccn2)n1C	4%	-1%
CN(Cc1ccco1)c1ncnc2ccc(-c3cccc(C#N)c3)cc12	2%	3%
C/C(=C\c1csc(C)n1)[C@@H]1C[C@@H]2O[C@]2(C)CCC[C@H](C)[C@H](O)[C@@H](C)C(=O)C(C)(C)[C@@H](O)CC(=O)O1	-41%	?
C=CCCCN1C=C(C(=O)OCC)C(c2ccccc2)NC1=O (stereo unspecified)	-11%[8.59 µM]	-5%[8.59 µM]
CCOC(=O)C1CSCCS(=O)(=O)N1Cc1cc(F)ccc1Br (stereo unspecified)	17%	22%
Cc1ccc(N=CN(C)C=Nc2ccc(C)cc2C)c(C)c1	1%	-11%
COC(=O)c1cc(Oc2ccc(Cl)cc2Cl)ccc1[N+](=O)[O-]	-11%	-21%
COc1ccc(CN2CCC3(CCC(CNC(=O)c4ccco4)O3)CC2)c(OC)c1C (stereo unspecified)	?	-8%
CC(C)(C)OC(=O)N1CCCC(C(=O)Nc2cccc(C(=O)NCCCc3ccccc3)c2)C1 (stereo unspecified)	?	-15%
CCc1cc2c(nc1CC)CCN(CCC(C)=NO[C@@H](C)c1cn([C@H](CO)Cc3ccccc3)nn1)C2	-27%[8.59 µM]	16%[8.59 µM]
CC(C)C[C@H](NC(=O)CNC(=O)[C@@H]1CCCN1C(=O)[C@H](CCCNC(=N)N)NC(=O)[C@H](CC(=O)O)NC(=O)[C@@H](NC(=O)[C@H](CC(N)=O)NC(=O)[C@@H](NC(=O)[C@H](CC(=O)O)NC(=O)CNC(=O)[C@@H](NC(=O)[C@@H](NC(=O)[C@H](C)NC(=O)[C@@H](N)CCC(N)=O)[C@@H](C)O)C(C)C)C(C)C)[C@@H](C)O)C(=O)N[C@@H](CC(C)C)C(=O)N[C@@H](CC(=O)O)C(=O)N[C@@H](CC(C)C)C(=O)N[C@@H](CCCCN)C(=O)O	8%	14%
C=CC1CN2CCC1CC2C(O)c1ccnc2ccccc12 (stereo unspecified)	?	33%&1%[activator]
C[C@@H]1CC[C@H]2C(=O)N(Cc3cccc([N+](=O)[O-])c3)C[C@H](O)CN2[C@@H]1c1ccc(Br)cc1	33%[activator][8.59 µM]	15%[8.59 µM]
CCCc1c(OCCCOc2ccc(OCC(=O)O)cc2)ccc(CC=O)c1O	-21%	-17%
CCC1CN(Cc2cccc3nccnc23)Cc2cc(OC)ccc2O1 (stereo unspecified)	-15%	-15%
CC1(C)[C@@H]2CC[C@@]1(C)[C@H](OC(=O)CSC#N)C2	4%	-21%
CCOC(=O)NN=C1C[C@@H](O)[C@@H](O)[C@@H]2[C@H]3C(=O)N(Cc4ccc5c(c4)OCO5)C(=O)[C@@H]3CC[C@H]12	-22%[8.59 µM]	4%[8.59 µM]
COC(=O)C1C(=O)C(C(=O)/C=C/c2ccco2)C(=O)CC1(C)C (stereo unspecified)	2%	-11%
Cc1ccc([C@H]2C[C@@H](n3cc(C4CC4)nn3)[C@H](O)CN2CC2CCCCC2)cc1	?	?
O=[S+]1([O-])C[C@H](N2CC[C@@H](O)C2)[C@H](COCc2ccccc2)N1	20%	?
COc1ccc(Cl)cc1-c1ccc(C(=O)O)o1	16%	0%
COc1ccc(Cl)cc1-c1cc2c(c(OC)c1)OCCN(Cc1cccn1-c1nccs1)C2	-19%	-10%
C=CCN1C(=O)[C@]2(O[C@H](C)CC3=CCCC32)c2c(Br)cccc21 (stereo partly specified)	2%[8.59 µM]	47%[activator][8.59 µM]
C=CCNc1ccccc1S(=O)(=O)NCc1ccccc1	5%	21%
C=C1CCC(C2CC(=O)OC2=O)C(=O)CCC2C1CC2(C)C (stereo unspecified)	14%	5%
Cc1nc(C)n(CC(=O)NCC2Cc3cc(-c4ccsc4)cc(Cl)c3O2)n1 (stereo unspecified)	10%	2%
COc1ccc2c(c1)CCc1cnc(-n3ncc(C(=O)NCCCc4ccncc4)c3C)nc1-2	?	?
COc1cc(/C=C/C(=O)c2ccc(O)cc2O)ccc1O	18%	-26%
O=S(=O)(O)c1ccc2c(c1)-c1nc-2nc2[nH]c(nc3nc(nc4[nH]c(n1)c1ccc(S(=O)(=O)O)cc41)-c1ccc(S(=O)(=O)O)cc1-3)c1ccc(S(=O)(=O)O)cc21	1.3µM*	?
COc1cc2nc(N3CCN(C(=O)OCc4ccccc4)[C@H](C(=O)NC(C)(C)C)C3)nc(N)c2cc1OC	11µM*	1%
COc1cc2c(cc1OC)C(C(C(=O)N(CCc1ccc(OC)c(OC)c1OC)CCc1ccc(OC)c(OC)c1OC)c1ccccc1)=NCC2 (stereo unspecified)	?	?
COc1cc(=O)n2c(c1C(=O)NCc1ccco1)CCN(C(=O)c1cccnc1SC)CC2	-7%	-3%
COC(=O)C1OC(=O)C2O[C@@]23[C@]2(C)C(OC(C)=O)CC4C(C)(C)C(=O)CC[C@]4(C)C2CC[C@@]13C (stereo partly specified)	1%	1%
CCCCCCCC/C=C\CCCCCCCC(=O)NCC(=O)O	-13%	-9%
CC(C)(C)c1o[nH]c(=O)c1C[C@H](N)C(=O)O	17%	3%
COc1ccc(C2CC(=O)Oc3cc(OC)c(OC)c(OC)c32)cc1 (stereo unspecified)	0%	5%
CO[C@H]1[C@H](NC(=O)c2ccco2)c2ccccc2C12CCN(Cc1cnc(N(C)C)s1)CC2	16%	-2%
N#Cc1ccc(Oc2nccc(-c3c(-c4ccc(F)cc4)ncn3C3CCNCC3)n2)cc1	?	/
CCCCc1nn(-c2ccccc2C(F)(F)F)c(=O)n1Cc1ccc(-c2ccccc2S(=O)(=O)NC(=O)c2sccc2C)cc1	-28%	?
CCCCC1=C(C(=O)OCC)C(C(=O)OCC)Oc2ccccc21 (stereo unspecified)	-20%	-14%
CC(=O)C1(C)CC2(CC(C)(C)OC2=O)C(=O)O1 (stereo unspecified)	-8%	6%
COC(=O)CC(Oc1c(C)n(C)c2ccccc2c1=O)c1ccccc1 (stereo unspecified)	-5%[8.59 µM]	-6%[8.59 µM]
O=C(O)c1cc(N=Nc2ccc(-c3ccc(N=Nc4ccc(O)c(C(=O)O)c4)cc3)cc2)ccc1O	22%	4%
O=S(=O)(NCc1ccccc1)c1cc(Br)ccc1Br	8%	11%
CCN(CC)Cc1nccn1-c1ccc([N+](=O)[O-])cc1C(=O)c1ccccc1Cl	?	/
COc1ccc(C(=O)N2CCOc3ccc(CN4CCN(c5ccccn5)CC4)cc3C2)o1	?	-1%
COc1ccc([C@@H](NC(=O)C(F)(F)F)C2CCCC=C2c2ccccc2)cc1OC (stereo partly specified)	3%[8.59 µM]	-11%[8.59 µM]
CC1NCCOC1c1ccccc1 (stereo unspecified)	18%	1%
C#Cc1cccc(C(=O)NCc2nc(-c3ccccc3NC(=O)C3CCCO3)oc2C)c1 (stereo unspecified)	37%[activator]	18%
CC[C@H](C)[C@H]1O[C@]2(CC[C@@H]1C)C[C@@H]1C[C@@H](C/C=C(\C)[C@@H](O[C@H]3C[C@H](OC)[C@@H](O[C@H]4C[C@H](OC)[C@@H](O)[C@H](C)O4)[C@H](C)O3)[C@@H](C)/C=C/C=C3\CO[C@@H]4[C@H](O)C(C)=C[C@@H](C(=O)O1)[C@]34O)O2	?	14µM*
CCCCC/C=C\CC(O)/C=C/c1cccc(CC(O)CCCCO)n1 (stereo unspecified)	2%&12%	-9%&3%
CC[C@H](C)[C@H](NC(=O)[C@H](N)Cc1ccc(O)cc1)C(=O)N[C@@H](CC(N)=O)C(=O)N[C@@H](CC(C)C)C(=O)N[C@H](C(=O)N[C@@H](C(=O)N[C@@H](CCCN=C(N)N)C(=O)N[C@@H](CCC(N)=O)C(=O)N[C@@H](CCCN=C(N)N)C(=O)N[C@H](Cc1ccc(O)cc1)C(N)=O)[C@@H](C)O)[C@@H](C)CC	-1%	6%
CC1(O)C(=O)C=C2C=C(C3CC3)OC=C2C1=O (stereo unspecified)	4%	-1%
Cc1ccc(-c2nc3ccc(C)cn3c2CC(=O)N(C)C)cc1	5%	-4%
C[C@@H]1NCCc2cc(O)c(O)cc21	8%[17.8 µM]	3%[17.8 µM]
CN1C=CC(=O)[C@@H](O)[C@@H]1c1ccccc1Br	5%	20%
COC(=O)C1(C(=O)OC)CC2=C[C@H](CC2=O)Cc2ccccc2[C@@H]1C[N+](=O)[O-]	0%&-9%	0%&-2%
CCS(=O)(=O)Nc1cc(C(=O)N2CCCN(C=O)CC2)c2c(c1)nc(-c1ccccc1)n2C	3%	6%
CCC1CCCCC1	5%	2%

(list continues)
SMILES	Marburg entry	LASV entry inh
CCCN(CCC)C1Cc2cc(OC)c(OC)cc2C1	0%&-5%	4%&4%
Cc1ncc2c(c1CNC(=O)/C=C/c1cccs1)CCN(C(=O)c1c(C)noc1C)C2	?	-5%
CO[C@H]1[C@H](NC(=O)c2ccsc2)c2ccccc2C12CCN(Cc1cccc3ncccc13)CC2	-14%	-4%
C[C@@H]1COc2cccc(NCCCN3CCOCC3)c2S(=O)(=O)N1	9%	23%
OCC(O)Cc1ccc2c(c1)OCO2 (stereo unspecified)	10%	-15%
CC(=O)OCC(COC(C)=O)OC(C)=O	7%&9%	1%&5%
Cc1cc(O)cc(O)c1C(=O)OC1(C)C(=O)C=C2C=C(/C=C/C(=O)O)OC=C2C1=O (stereo unspecified)	5%	3%
C/C(=C\COc1cc(=O)[nH]c2ccccc12)CCC(O)C(C)(C)O (stereo unspecified)	23%&-14%	-2%&-9%
CC1=CC(=O)c2c(O)cccc2C1=O	4µM*	3.2µM*
COC(C)(C)CCCC(C)C/C=C/C(C)=C/C(=O)OC(C)C (stereo unspecified)	15%&18%	14µM*!
CCC1(CC)CCNC1=O	8%	7%
O=C(Oc1ccccc1)[C@H]1O[C@H]1c1ccccc1	34%[activator][8.59 µM]	/
N#CCCn1cnc2c1NC=NC2Cl (stereo unspecified)	-15%	5%
N#CC(C#N)=C(N)/C(C#N)=C/c1cc(O)c(O)c(O)c1	-11%	-4%
C=C(Nc1ccc(OCC)cc1)Nc1ccc(OCC)cc1	?	-27%&-17%
C[C@H](N)Cc1cnc[nH]1	7%&2%	1%&0%
CC(CCC(=O)O)C1CCC2C3CC[C@H]4CC(O)CC[C@@]4(C)C3CC(O)[C@]12C (stereo partly specified)	8%	7%
C=CCN	26%	18%
COc1ccc2c(c1)C(c1cc(OC)c(OC)c(OC)c1)CC(=O)O2 (stereo unspecified)	-6%	-16%
CC#CCN1c2ccccc2[C@]23CCC(=O)N(Cc4cccc(C(F)(F)F)c4)C2=NC(C(=O)OC)=C(C(=O)OC)[C@H]13	19%[8.59 µM]	-7%[8.59 µM]
COC(=O)c1c(Cl)c(Cl)c(C(=O)OC)c(Cl)c1Cl	9%	1%
COc1cc(OC)cc(OC)c1	-19%	-13%
COc1ccccc1C1CN(CCNC(=O)c2ccc3c(c2)OCCO3)Cc2ccccc2O1 (stereo unspecified)	-5%	-15%
C=C1CC[C@H](O)CC1=C/C=C1\CCC[C@]2(C)[C@@H]([C@H](C)CC[C@@H](O)C(C)(C)O)CC[C@@H]12	2%	16µM*
C=CCN=C1N[C@H](c2ccc(Br)cc2)C(C(=O)OC)=C(C)N1Cc1ccccc1	1%[8.59 µM]	-5%[8.59 µM]
COc1ccc(-c2ccc3c(n2)CCCN3CC(O)CN2CCCc3nc(C)c(C)cc32)cc1 (stereo unspecified)	53%[activator][8.59 µM]	12%[8.59 µM]
CC(C)c1ccc(Cn2ccc3c4c(N)nc(NC5CC5)nc4ccc32)cc1	4µM*	13µM*
CC1=C(C(=O)OC(C)C)[C@@H](c2cccc3nonc23)C([N+](=O)[O-])=C(C)N1	-12%	2%
CNCCCC1c2ccccc2C=Cc2ccccc21	7.1µM*	?
C=CCC1([C@@H](C)CCC)C(=O)NC(=O)NC1=O	-7%	-8%
Cc1ccc2c(=O)c3cccc(CC(=O)O)c3oc2c1C	10%	0%
c1ccc2nc(C3=NCCN3)cnc2c1	-18%	1%
COc1ccccc1-c1cncnc1NCc1cccc(C)c1	-17%	-5%

Entries of single compounds, quoted from the list. Order of screens: Marburg entry | LASV entry inh
`Cc1ccc(N=CN(C)C=Nc2ccc(C)cc2C)c(C)c1` as listed: 1% | -11%
`CC1NCCOC1c1ccccc1` (stereo unspecified) as listed: 18% | 1%
`Cc1ccc(-c2nc3ccc(C)cn3c2CC(=O)N(C)C)cc1` as listed: 5% | -4%

A second format for 3 compounds above.
> CNCCCC1c2ccccc2C=Cc2ccccc21
  Marburg entry: 7.1µM*
  LASV entry inh: ?
> C=CCC1([C@@H](C)CCC)C(=O)NC(=O)NC1=O
  Marburg entry: -7%
  LASV entry inh: -8%
> Cc1ccc2c(=O)c3cccc(CC(=O)O)c3oc2c1C
  Marburg entry: 10%
  LASV entry inh: 0%
